Source: PubChem
2A StopGo: High Throughput Screening for Foot and Mouth Disease Virus Antivirals. Potency, µM (series often up to 57.9 µM), without a hit: top-dose signal change, negative = less light. human cells with a luciferase reporter of 2A StopGo recoding; control for the full effect not named in the record. 410,000 tested, 1.2% active; active = well fitted falling curve with a large enough effect; inconclusive = small, poorly fitted or top-dose-only effect; inactive = no such curve, though single readings can be large or run the other way; tested in HEK293T cells; note: nearly all actives have a fitted effect of over 45% in size; luciferase light after 4 h
RE007 growth inh: qHTS Assay for Inhibitors of the HIV-1 protein Vpr | AID 651644, 2012 | 360,000 tested, 0.21% active | S. pombe RE007 Vpr strain, BacTiter-Glo ATP luminescence, 24 h; control for the full effect not named in the record | Potency, µM (series often up to 92.2 µM), inactives show top-dose activity change, negative = less growth; active = well fitted falling curve with a large enough effect; inconclusive = small, poorly fitted or top-dose-only effect; inactive = no such curve, though single readings can be large or run the other way;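 note: nearly all actives have a fitted effect of over 50% in size; the assay follows cell death caused by Vpr and the record does not say whether a fall means rescue or toxicity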
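Fission yeast strain RE007, carrying one chromosomally integrated HIV-1 vpr copy, was seeded at OD 0.01 in PMG+AL medium with 23 nL pinned compound. After 24 h at 30 °C and 99% humidity, viability was read by BacTiter-Glo luminescence.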
The depositor's hits bear a star; ? = inconclusive; [ ] = dose if it differs, or a comment. % is set by controls: 0 for no effect and ±100 for the full control effect; potency is the fitted concentration of half-maximal effect. Only part of the results is shown; count on the stated rates, not on these rows.

SMILES	2A StopGo	RE007 growth inh
COc1ccc(-c2cc(NC=O)c3ncc(-c4cccc(C(=O)N(C)C)c4)n3c2)cn1	-29%	-18%
O=C(O)CC1NC(=S)N(Cc2ccccc2)C1=O (stereo not given)	-15%	2%
OC(Cc1cccc(C=NN2CCOCC2)n1)(C(F)(F)F)C(F)(F)F	2%	-4%
CCOC(=O)[C@]12CCC=C1N(Cc1cccc3ccccc13)C(=O)[C@H](CC(=O)N1CCC(c3ccccc3)CC1)C2	-15%	-11%
Cc1cc(C(O)c2ncc(-c3ccc(Cl)cc3)[nH]2)ccc1F (stereo not given)	4%	-37%
COC(=O)[C@@]12C[C@@H](CC(=O)NCCC(C)C)C(=O)N(Cc3ccccc3)C1=CCC(C)(C)C2	17%	5%
CCCc1cn(CC(C)n2c(=O)c3ccccc3n2Cc2cc(C(C)C)no2)nn1 (stereo not given)	0%	0%
CCCC(=O)N1CCCC1(C)C(=O)NCc1ccc(F)cc1Cl (stereo not given)	-7%	5%[18.4 µM]
C[C@@H]1CCCCO[C@H](CN(C)Cc2ccc(C(F)(F)F)cc2)[C@@H](C)CN([C@H](C)CO)C(=O)c2cc(NS(=O)(=O)c3cn(C)cn3)ccc2O1	-12%	3%
COc1ccc(-c2cc(NC(C)=O)c3ncc(-c4ccc(OC)c(OC)c4)n3c2)cc1OC	-3%	13%[18.4 µM]
Cc1ccc(-c2csc(C(O)c3ccccc3)n2)cc1C (stereo not given)	25%	6%
CC1(C)ON=C(c2cccc(F)c2)NC1=O	-5%	-9%[18.4 µM]
COC(=O)[C@@]12C[C@@H](CC(=O)NCCc3ccccc3OC)C(=O)N(CCc3ccc(OC)c(OC)c3)C1=CCC(C)(C)C2	-18%	-2%
CCC(=O)N1CCC1(C)C(=O)NCc1ccc(SC)cc1 (stereo not given)	-23%	1%
CNc1nc(NCC2CCCCC2)c2sccc2n1	?	-14%
CC1C(=O)N(Cc2cn(Cc3ccco3)nn2)CCS(=O)(=O)N1Cc1ccc(-c2ccc(F)cc2)cc1 (stereo not given)	0%	9%
C[C@H](c1ccccc1)N1C[C@@H](COCc2ccccc2)Oc2cc(N3CCC[C@@H]3CO)ccc2S1(=O)=O	2%	2%
O=C(c1[nH]c(C(F)(F)F)nc1-c1ccccc1)N1CCOCC1	-14%	2%
COc1ccc(CCC(=O)Nc2ccc(S(=O)(=O)NC3=NCCCCC3)cc2)cc1	1%	-1%
CSCCC(C(=O)NCc1ccccc1)n1c(Cc2cc(F)cc(F)c2)nc2ccccc21 (stereo not given)	-12%	14%
CCOC1=C2[C@@H](CN(S(=O)(=O)c3ccc(C)cc3)[C@H]2c2cccc3ccccc23)[C@H]2C(=O)NC(=O)[C@H]2C1	37%[activator]	-1%
C[C@@H]1CN([C@H](C)CO)S(=O)(=O)c2ccc(Br)cc2O[C@@H]1CN(C)Cc1ccc(-c2ccccc2)cc1	-23%	-2%
CC(C)(C)OC(=O)N1CCC2(CC1)Oc1ccc(F)cc1C(=O)C21CC(c2ccccc2)=NO1 (stereo not given)	-28%	8%
COC(=O)C1=C(c2cc3ccccc3s2)C[C@@H]2CC[C@H]1N2C(=O)NCC1CC1	-29%	32%
C=CCNc1nc(NCCOc2ccccc2Cl)c2sc(-c3ccccc3)cc2n1	-27%	-12%

Laid out differently: 3 of the compounds above.
Compound,2A StopGo,RE007 growth inh
C[C@@H]1CN([C@H](C)CO)S(=O)(=O)c2ccc(Br)cc2O[C@@H]1CN(C)Cc1ccc(-c2ccccc2)cc1,-23%,-2%
CC(C)(C)OC(=O)N1CCC2(CC1)Oc1ccc(F)cc1C(=O)C21CC(c2ccccc2)=NO1 (stereo not given),-28%,8%
COC(=O)C1=C(c2cc3ccccc3s2)C[C@@H]2CC[C@H]1N2C(=O)NCC1CC1,-29%,32%

Among those listed so far, two have an NH in an aromatic ring:
SMILES	2A StopGo	RE007 growth inh
Cc1cc(C(O)c2ncc(-c3ccc(Cl)cc3)[nH]2)ccc1F (stereo not given)	4%	-37%
O=C(c1[nH]c(C(F)(F)F)nc1-c1ccccc1)N1CCOCC1	-14%	2%

Going on with the list.
SMILES	2A StopGo	RE007 growth inh
COc1cc(OC)nc(Oc2ccccc2/C=N/O)n1	-3%	12%
CS(=O)(=O)Nc1cccc(NC(=O)c2cccc3c(-c4cccc(C(N)=O)c4)coc23)c1	-21%	9%
Cc1ccc(C(=O)N2[C@@H]3CN(C)C(=O)[C@@]2(C)[C@H]2C(=O)N(C)C(=O)[C@@H]32)cc1	-17%	19%
CCCCNC(=O)C[C@@H]1C[C@@]2(C(=O)OC)CCCCC=C2N(Cc2ccco2)C1=O	-13%	1%
Nc1ncnc2c1ncn2[C@@H]1O[C@H](C(=O)Nc2cc(C(F)(F)F)cc(C(F)(F)F)c2)[C@@H](O)[C@H]1O	?	-12%
Cc1cccc(C)c1NC(=O)CN1CCC(Cc2ccccc2)CC1	-18%	5%
CC1c2ccccc2-n2nncc2CN1C (stereo not given)	-15%	5%
COc1ccc(CNC(=O)C2(CC3CC(c4ccccc4)=NO3)CCN(C(=O)c3cccc(O)c3)CC2)cc1 (stereo not given)	-22%	-10%
CCc1cccc(C)c1NC(=O)COC(=O)Cc1ccccc1	-10%	15%
CCCCCCn1c(=O)n2n(c1=O)[C@@H]1CN(S(=O)(=O)c3ccc(C)cc3)C[C@]1(O)[C@@H](OC(=O)Nc1cccs1)C2	0%	-2%
CN(Cc1ccccc1)C(=O)Nc1c(Cl)cccc1Cl	2%	-10%[18.4 µM]
CCc1nc2c(OCCC3CCCCC3)cccn2c1N(C)C(=O)COc1ccccc1	?	4%
CCOC(=O)[C@]12CCC=C1N(Cc1cccc3ccccc13)C(=O)[C@H](CC(=O)NCCc1ccccc1OC)C2	-17%	5%
CC(C)(C)c1ccc(CC(=O)N2CCC2(C)C(=O)NS(=O)(=O)c2ccccc2Cl)cc1 (stereo not given)	-15%	29%
COc1ccc(S(=O)(=O)N(C)C[C@@H]2Oc3cc(Br)ccc3S(=O)(=O)N([C@H](C)CO)C[C@@H]2C)cc1	-19%	1%
C[C@H]1CN([C@@H](C)CO)C(=O)CCCn2nncc2CO[C@H]1CN(C)C(=O)Oc1ccccc1	-4%	-8%
CC1(c2cccc(N)c2)OCCO1	9%	5%
CCCCN1C(N)=NC[C@@H]1CCCCN	-3%	-1%
COCCCN1C(=O)C(CC(=O)NCCN2CCOCC2)CC(C(=O)N(C(C)C)C(C)C)=C1C (stereo not given)	0%	9%
CCC12CC1(C(=O)OC)C(=O)N1CCc3c([nH]c4ccccc34)C12 (stereo not given)	-14%	11%
CC(C)(C)OC(=O)N(CCc1ccccc1)Cc1cccc(OCc2cccc(NC(=O)C3CC3)c2)c1	?	-10%
CN1CCN(c2ncnc3c2ncn3[C@H]2CN(Cc3cccs3)C[C@@H](CO)O2)CC1	-21%	-4%
COc1cc2nc3n(c(=O)c2cc1OC)-c1ncccc1C(=O)NC3Cc1ccccc1 (stereo not given)	-23%	-6%
CCOc1ccc2[nH]c(=S)sc2c1	30%[activator]	?
Cc1ccccc1-c1n[nH]nc1C1=CC(=O)C[C@H](c2ccc(F)cc2)C1	-26%	-1%
(listing goes on)
SMILES	2A StopGo	RE007 growth inh
Cc1ccc(C(=O)NCCN2CCC(n3c(=O)[nH]c4ccccc43)CC2)cc1F	-20%	2%
Cc1ccc([C@@H]2CC(=O)[C@@H]3CN(S(=O)(=O)c4ccc(C)cc4)[C@H](c4ccccc4)C[C@@H]3N2S(=O)(=O)c2ccc(C)cc2)cc1	-20%	5%
Cc1cc(Br)c(Oc2cc(NN3CCCCC3)c([N+](=O)[O-])cc2[N+](=O)[O-])c(Br)c1	-1%	-13%
CN1CCN(C(=O)c2cccc3c(-c4ccc(F)c(F)c4)coc23)CC1	-12%	0%
CS(=O)(=O)Nc1ccccc1-c1cccc2nccn12	1%	1%[18.4 µM]
O=C(Nc1ccc(Cl)cc1)c1ccc2sc([C@@H]3O[C@H](CO)[C@H](O)[C@H](O)[C@H]3O)nc2c1	20%	-1%
COc1ccc(C(C)(O)c2nc(-c3ccc(S(C)(=O)=O)cc3)cs2)cc1 (stereo not given)	?	7%
Cc1cn(CC(=O)N[C@H](CO)Cc2c[nH]c3ccccc23)c(=O)[nH]c1=O	-10%	-3%
CCCCCC(=O)N1C[C@H](O)[C@@H](n2cc(COC(=O)c3ccccc3)nn2)C[C@@H]1c1ccc(C)cc1	-4%	11%
C[C@H](O)[C@@]1(O)CC[C@H]2[C@@H]3CC[C@@H]4C[C@H](O)CC[C@]4(C)[C@H]3CC[C@@]21C	?	0%
COC(=O)C1CCN(C2CN(Cc3ccc([N+](=O)[O-])cc3)S(=O)(=O)C2)CC1 (stereo not given)	0%	-7%
OC(CCN1CCCCC1)(c1ccccc1)C1C[C@@H]2C=C[C@H]1C2 (stereo not given in full)	-20%	-11%
Cc1[nH]c2ccccc2c1SCCN	-15%	-13%
CC1(C(=O)NS(=O)(=O)c2ccc(Br)cc2)CCN1C(=O)C1(c2ccccc2)CC1 (stereo not given)	37%[activator]	10%[18.4 µM]
CC(C)c1cccc(C(C)C)c1OCCCCCN1CCOCC1	-22%	-5%
Cn1ccc2c(N(Cc3ccccc3)Cc3ccccc3)cc3c(c21)C1CCC3C1 (stereo not given)	-29%	-16%
CCc1nc2ccc(C(=O)Nc3ccc(NC(C)=O)cc3)cn2c1N(C)C(=O)Cc1ccccc1	-7%	56%
CS(=O)(=O)NNC(=O)Cn1nnc(-c2ccc(OCc3ccccc3Cl)cc2)n1	53%[activator]	-5%
Cc1c(Cl)cccc1N1C(=O)CC(Sc2ccccc2N)C1=O (stereo not given)	-10%	-15%
CC1(C)CC(=O)C=C(c2ccc(-c3ccc4[nH]ccc4c3)cc2)C1=O	-26%	-12%
COCCNC(=O)c1ccccc1N(Cc1ccccc1)S(=O)(=O)c1ccccc1	0%	5%
CCOC(=O)C1(C)CCCCN1C(=O)c1cccs1 (stereo not given)	-23%	-10%
CC(C)c1ccc(NC(=O)c2ccc(-c3ccnn3C)c3ccoc23)cc1	?	-8%
CC1(C(=O)NS(=O)(=O)c2ccccc2Cl)CCN1C(=O)C1CC1 (stereo not given)	-6%	-5%
COc1ccc(CCC(=O)OCC(=O)NC2CCCC2)cc1OC	0%	1%

Single records, from the list above.
Listed for `CS(=O)(=O)Nc1ccccc1-c1cccc2nccn12` = 2A StopGo: 1%; RE007 growth inh: 1%[18.4 µM]
Listed for `CC1(C(=O)NS(=O)(=O)c2ccc(Br)cc2)CCN1C(=O)C1(c2ccccc2)CC1` (stereo not given) = 2A StopGo: 37%[activator]; RE007 growth inh: 10%[18.4 µM]

Next section
SMILES	2A StopGo	RE007 growth inh
Clc1cccc(-c2cccc3nccn23)c1	-13%	?
CC1(C(=O)NCC2CC2)Cc2c(-c3cccc(C(N)=O)c3)ccnc2O1 (stereo not given)	1%	1%
Cc1ccc(OCCC(=O)OCC(=O)NCCNC(=O)COC(=O)CCOc2ccc(C)cc2)cc1	-12%	6%
CN(C(=O)CSc1nnc(C(F)(F)F)n1C)c1c(N)n(Cc2ccccc2)c(=O)[nH]c1=O	-8%	-1%
CCCN1CCC(C(=O)NC(c2ccc(F)cc2)c2ncccc2C)CC1 (stereo not given)	-19%	0%[18.4 µM]
C[C@@H]1CCCCO[C@H](CN(C)C(=O)Cc2ccccc2)[C@H](C)CN([C@@H](C)CO)C(=O)c2cc(NC(=O)Nc3ccc(F)cc3)ccc2O1	?	-3%
CC1=C(C(=O)N(C)C)CC(CC(=O)NC2CCCC2)C(=O)N1Cc1ccccc1 (stereo not given)	4%	6%
Cc1cc(C)n2nc(C)c(-c3ccccc3)c2n1	-11%	-21%
CC[C@@H]1CC2=C(C(=O)OC(C)(C)O2)[C@@H](c2ccc(Cl)cc2)O1	-8%	3%
COc1ccc(C=CC(=O)c2ccc(OCc3ccccc3)c(OC)c2)cc1OC	?	3%
COc1ccc(NC(=O)C2Cc3c(-c4cccc(NC(C)=O)c4)ccnc3O2)cc1OC (stereo not given)	?	14%
COC(=O)c1cc(=O)nc(NN=Cc2ccc(OC)cc2)s1	-2%	-1%
C=C1C(=O)OCC2C(C(=O)O)=CC3C(C)C(C)=CC123 (stereo not given)	?	20%
COc1ccc2c(c1)Cc1c-2cc(Br)c(N)c1Br	-15%	0%
O=c1[nH]c2cc3c(cc2cc1CN(CCc1ccccc1)C(=S)NCCCN1CCOCC1)OCCO3	-9%	4%
C[C@@H]1CN([C@@H](C)CO)S(=O)(=O)c2ccc(Br)cc2O[C@H]1CN(C)C(=O)c1ccc2c(c1)OCO2	?	17%
COCCNc1nc(-c2ccccc2F)c2sc(-c3ccccc3)cc2n1	-16%	2%
Cc1cccc(NC(=O)CNC(=O)[C@H]2O[C@@H](n3ccc(N)nc3=O)[C@H](O)[C@@H]2O)c1C	-8%	8%
CC1(C)OCC(CNC(=O)c2[nH]c(C(F)(F)F)nc2-c2ccccc2)O1 (stereo not given)	-14%	9%
COC(=O)[C@]12CCCCC=C1N(CCC1=CCCCC1)C(=O)[C@H](CC(=O)NCC1CCCCC1)C2	-5%	0%
O=S(=O)(c1cc(Cl)cc(Cl)c1)N1CCC2CC1c1cc(Cl)ccc12 (stereo not given)	-23%	3%
CC(=O)Nc1ccc(C(=O)NNC(=O)c2csc(N3CCOCC3)n2)cc1	-8%	13%
FC(F)(F)c1cc(Cl)c2nc(-c3ccco3)c(Cc3ccccc3C(F)(F)F)n2c1	?	-27%
Cc1ccc([C@H]2N[C@]3(CCCN(Cc4ccc(Cl)cc4)C3=O)[C@H]3C(=O)N(Cc4ccccc4)C(=O)[C@@H]23)cc1	-27%	0%
